# Source: PubChem BioAssay (National Center for Advancing Translational Sciences (NCATS))
# Sfp inh: qHTS Assay for Inhibitors of Bacillus subtilis Sfp phosphopantetheinyl transferase (PPTase); 4'-phosphopantetheinyl transferase ffp (Bacillus subtilis), Q9F4F7; Biochemical Sfp PPTase activity, qHTS; Potency, µM, for inactives: max response, negative = inhibition, actives largely listed as inhibitors; 3.5% of 310,000 active; AID 1490, 2009; active means well fitted inhibition curve with a large enough effect; inconclusive means small, poorly fitted or top-dose-only effect, or another doubt; inactive means no such curve, though single readings can be large or run the other way;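 further: the enzyme is Sfp with the accession as filed and its product quenches rhodamine fluorescence; potency means the concentration at half of the fitted maximal effect; 0% = enzyme reaction without inhibitor and -100% = no enzyme wells; top concentration of the series not given in the record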
#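 Buffer: 50 mM Hepes-Na pH 7.6, 10 mM MgCl2, 0.01% Nonidet P-40, 0.01% BSA. Enzyme 15 nM, pre-exposed to compound 15 min; substrates then added and fluorescence change tracked over 30 min.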
# TRPV1 PAM: HTS Assay for Compounds that Act as Potentiators of the Vanilloid Receptor 1; Transient receptor potential cation channel subfamily V member 1 (Homo sapiens), Q8NER1; TRPV1-expressing cells, Fluo-8 calcium influx, capsaicin EC20 potentiation; host cell line not named in the record; control for the full effect not named in the record; potentiation, % at 8.33 µM; 0.02% of 320,000 active; AID 540277, 2011; active means potentiation above 80%; inconclusive means 30% to 80%; inactive means below 30%; further: 0% is about no effect
#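 TRPV1-expressing cells were cultured overnight at 35.5C and loaded with Fluo-8 calcium dye for 40 to 90 min at room temperature. After a 10 s baseline, compound was added and calcium influx was read kinetically for 3 min (ex 480/em 520 nm).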
# TRPML1 inh: qHTS for Inhibitors of the Human Mucolipin Transient Receptor Potential 1 (TRPML1) | 0.02% of 390,000 active | TRPML1-inducible cells, Ca2+ dye fluorescence, FDSS; stronger effect = lower value; inhibition of EC80 agonist-evoked calcium signal | activity change, negative = inhibition, % (concentration not given with the values); in the data active means activity change below about -50%; inconclusive means about -30% to -50%; inactive means above about -30%;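 further: stimulus is agonist 54-4 at its EC80 concentration; on the % scale 0 is the no-effect control and ±100 the full control effect; compound concentration not given in the record; the text of the record puts the active cut at -80%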
# Target sequence (Q9GZU1 whole entry, looked up): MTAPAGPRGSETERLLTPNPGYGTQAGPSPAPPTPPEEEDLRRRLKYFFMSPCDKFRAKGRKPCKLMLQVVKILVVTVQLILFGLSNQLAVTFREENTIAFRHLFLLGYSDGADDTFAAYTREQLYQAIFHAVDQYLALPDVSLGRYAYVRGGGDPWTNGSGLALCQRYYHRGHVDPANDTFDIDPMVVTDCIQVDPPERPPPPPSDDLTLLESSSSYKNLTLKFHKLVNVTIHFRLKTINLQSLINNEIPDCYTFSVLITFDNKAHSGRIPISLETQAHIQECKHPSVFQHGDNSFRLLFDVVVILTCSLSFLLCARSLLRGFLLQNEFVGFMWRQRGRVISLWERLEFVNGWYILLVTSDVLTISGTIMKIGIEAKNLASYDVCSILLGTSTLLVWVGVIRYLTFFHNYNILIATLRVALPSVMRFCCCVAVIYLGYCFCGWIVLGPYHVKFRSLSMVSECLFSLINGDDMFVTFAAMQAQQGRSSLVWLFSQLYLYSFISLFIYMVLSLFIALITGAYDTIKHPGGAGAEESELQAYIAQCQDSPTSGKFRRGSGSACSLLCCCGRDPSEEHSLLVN
#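 Tet-induced TRPML1-DL cells loaded with Ca8 no-wash calcium dye were read kinetically on FDSS. Compound addition was followed by EC80 agonist 54-4 (4 uM final); inhibition was read over 110 s.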
# Menin MLL FP FL: qHTS Assay for Inhibitors Targeting the Menin-MLL Interaction in MLL Related Leukemias: Competition With Fluorescein Labeled MLL-derived Peptide; FP activity change, % at 61.4 µM; Fluorescence polarization, fluorescein-MLL peptide displacement from menin; 290,000 tested, under 10 active; AID 1766, 2009; inconclusive = falling polarisation curve, or a change in total fluorescence; inactive = total fluorescence flat and polarisation flat or rising; no compound was filed as active; the % refers to the polarisation; negative = inhibition;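 further: % of control where 0% means no effect; inhibitors lower the polarisation; unlabelled MLL peptide was the positive control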
# gsp ag: qHTS for Agonist of gsp, the Etiologic Mutation Responsible for Fibrous Dysplasia/McCune-Albright Syndrome: qHTS | gsp mutant cells, cAMP HTRF, 30 min; control for the full effect not named in the record | Potency, µM (top dose mostly 76.9 µM), without a hit: at the top dose activation (cAMP increase), usual class: activators | 0.13% of 340,000 active; active = well fitted activation curve with a large enough effect; inconclusive = small, poorly fitted or top-dose-only effect, or another doubt; inactive = no such curve, though single readings can be large or run the other way; cell line not stated here;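 further: phosphodiesterase inhibitor Ro 20-1724 added with compounds to block cAMP breakdown; potency means the concentration at half of the fitted maximal effect; nearly all actives have a fitted effect of over 60% in size; about a fifth of the inactives were tested at one dose only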
#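 Cells in DMEM/10% FBS with G418 were pretreated with compounds in DMSO plus […] (300 uM stock) for 30 min at 37C. cAMP was measured by HTRF (cAMP-d2 plus anti-cAMP antibody-K) after 30 min at room temperature.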
# ClpP mod: qHTS Assay for Activators of ClpP; ATP-dependent Clp protease proteolytic subunit (Bacillus subtilis (strain 168)), P80244; purified B. subtilis ClpP, FRET peptide cleavage, 20 min; Potency, µM (top dose mostly 57.5 µM), without a hit: at the highest dose activity change, negative = active; 1.9% of 340,000 active; AID 651965, 2013; active = well fitted falling curve with a large enough effect; inconclusive = small, poorly fitted or top-dose-only effect; inactive = no such curve, though single readings can be large or run the other way; further: potency means the concentration at half of the fitted maximal effect; the source files actives as falling curves though it sought activators and does not explain the sign; nearly all actives have a fitted effect of over 65% in size; many hits overshoot -100%
# Target sequence (P80244 whole entry, looked up): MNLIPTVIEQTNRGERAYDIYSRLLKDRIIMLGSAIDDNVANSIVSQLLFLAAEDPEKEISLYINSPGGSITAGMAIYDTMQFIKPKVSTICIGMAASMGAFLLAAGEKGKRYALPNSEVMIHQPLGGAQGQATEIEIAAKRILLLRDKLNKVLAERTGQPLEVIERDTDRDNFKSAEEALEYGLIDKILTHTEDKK
#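 FRET quenching reversal measured ClpP activation: 10 microg/mL B. subtilis ClpP at pH 8 with the FRET-FV decapeptide, read at 430 nm after 320 nm excitation. The 20-min minus 0-min signal was scaled between DMSO/no-enzyme wells and ADEP (5.8 microM final).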
# gsp antagonist: qHTS for Antagonists of gsp, the Etiologic Mutation Responsible for Fibrous Dysplasia/McCune-Albright Syndrome: qHTS; gsp-mutant cells, cAMP HTRF, 30 min; control for the full effect not named in the record; Potency, µM (titrated, usually from 76.9 µM), for the others: top-dose activity change, negative = inhibition, most hits filed as inhibitors; 0.4% of 340,000 active; AID 624288, 2012; active = falling curve of any shape with a large fitted effect; inconclusive = falling curve, mostly with a smaller effect; inactive = flat or rising curve; cell line not stated here;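 further: intracellular cAMP measured with PDE inhibitor Ro 20-1724 present during compound exposure; potency means the concentration at half of the fitted maximal effect; on the % scale 0 is the no-effect control and ±100 the full control effect; nearly all actives have a fitted effect of over 65% in size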
#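 HTRF cAMP read-out (cAMP-d2 plus anti-cAMP antibody-K in lysis buffer, 30 min RT). Before lysis, cells are exposed to compounds with […] for 30 min at 37C in DPBS containing Ca/Mg, BSA and Tween 20.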
# An asterisk follows results filed as active; ? = inconclusive; · = not tested or not shown; [ ] = another dose, or the depositor's remark.
SMILES,Sfp inh,TRPV1 PAM,TRPML1 inh,Menin MLL FP FL,gsp ag,ClpP mod,gsp antagonist
O=C(C1=COCCO1)N1CCN(S(=O)(=O)c2cccc(F)c2)CC1,·,-0.3,-2.0,·,-4.1%,0.7%,2.6%
COCCNC(=S)N/N=C(\C)c1ccc(OC)cc1,10.9%,7.4,11.3,2.9,16.0%,-4.1%,2.8%
O=C(NCC1CCN(C(=O)c2ccc([N+](=O)[O-])cc2)CC1)C(=O)Nc1ccccc1,11.3%,6.0,4.5,3.2,27.6%[15.4 µM],·,-4.5%
CCC(C)(C)n1nnnc1C(c1cccc(C#N)c1)N1CCN(c2cc(C)ccc2C)CC1 (centres undefined),10.8%,-6.6,31.8,4.1,6.0%,0.2%,-3.2%
NC(=O)CSC1=Nc2ccccc2C2=NC(CCC(=O)NCc3ccc(F)cc3)C(=O)N12 (centres undefined),5.2%,6.4,7.2,2.5,?,28.2µM*,10.2%
CCCCN(C(=O)CSCC(=O)Nc1cccc(C)c1)c1c(N)n(CCCC)c(=O)[nH]c1=O,·,11.4,-5.1,·,2.6%,-12.1%,0.5%
O=C(COC(=O)/C=C/c1cccc(Br)c1)NC1CCCCC1,·,5.7,-2.5,·,3.7%,0.1%,3.6%
O=C(NNC(=O)c1cc2cc(Br)ccc2oc1=O)c1ccc(O)cc1,4.3%,3.6,-2.7,5.5,?,-2.7%,-13.2%
COc1ccc(NC(=O)COC(=O)c2ccco2)c([N+](=O)[O-])c1,-13.0%,-1.7,13.4,1.2,-39.9%[inhibitor],0.6%,11.8%
CC1N(C)c2cc(NC(=O)c3ccco3)c(P(=O)(Nc3ccc([N+](=O)[O-])cc3)N3CCOCC3)cc2C1(C)C (centres undefined),12.7%,-1.3,-12.3,-0.7,-1.3%[15.4 µM],-1.5%,-26.7%
Cc1nn(-c2ccccc2)c2sc(C(=O)NCCN3CCOCC3)cc12,11.3%,-8.0,9.7,3.4,24.2%,28.2µM*,11.7%
Cc1ccc(NC(=O)CN2C(=O)NC(Cc3ccccc3)C2=O)c(Br)c1 (centres undefined),9.0%,19.9,9.2,0.1,24.6%,-1.9%,14.0%
CCSc1ccccc1C(=O)NCc1ccc2c(c1)OCO2,-27.4%,-4.4,17.0,0.9,-27.2%,-3.1%,-3.0%
O=C(NCCCc1ccccc1)c1ccc(-n2cncn2)c([N+](=O)[O-])c1,·,-19.4,-6.5,·,8.9%[15.4 µM],0.5%,-0.7%
COc1ccccc1NC(=O)c1nn(C)c(C(=O)Nc2ccccc2OC)c1[N+](=O)[O-],-1.3%,11.0,-9.1,-1.2,2.3%[15.4 µM],-0.4%,-26.3%
CC(=O)NC(CC(=O)Nc1ccc2c(c1)OCCO2)c1ccccc1 (centres undefined),16.1%,-0.3,-18.1,-0.1,-12.9%,·,6.7%
CCN(C(=O)COC(=O)c1c(C)nn(-c2ccccc2)c1Cl)c1c(N)n(Cc2ccccc2)c(=O)[nH]c1=O,·,-12.4,21.6,·,8.0%[15.4 µM],0.0%,2.1%
Cc1ccc2nc(NC(=O)CN(C)S(=O)(=O)c3ccc(Br)s3)sc2c1,21.0%,9.9,-15.7,-1.1,3.7%,-15.4%,-19.0%
COc1cccc(C(=O)NCCS(=O)(=O)NC2CCCC2)c1,·,9.0,-9.8,·,-2.4%[15.4 µM],-7.6%,4.0%
CC(C)c1cc(Br)ccc1OCCN1C(=O)NC(C)(C)C1=O,-24.4%,-12.8,-1.1,4.4,?,2.6%,-17.7%
Cc1ccc(NC(=O)c2sc(Cl)nc2-c2ccccc2)cc1C,2.5%,-2.4,-8.4,-0.8,-47.0%[inhibitor],-6.0%,6.7%
CC1(C)CC(=O)C=C(c2ccc(-c3ccccc3)cc2)C1=O,·,·,7.4,·,-6.6%,-2.1%,·
O=C(CN1c2cccc3cccc(c23)S1(=O)=O)N1CCN(c2ccccc2)CC1,·,·,-15.8,·,1.3%,-13.6%,-0.3%
CCCS(=O)(=O)N1CCN(CC2CC3C=CC2C3)CC1 (centres undefined),-26.0%,-9.0,0.6,1.8,-0.2%,-0.3%,7.7%
O=C(CCCn1cnc([N+](=O)[O-])n1)Nc1cccc(O)c1,-9.2%,6.5,5.5,-5.6,3.8%,·,4.4%
O=C(CN1CCC(NC(=O)c2ccccc2F)CC1)Nc1ccc2c(c1)OCCO2,-8.2%,0.0,10.0,-1.1,1.9%,0.0%,-25.3%
CCCC(=O)Nc1nc2c(s1)COc1ccccc1-2,-0.1%,-8.9,40.1,-0.8,2.2%,-0.4%,7.9%
O=C(Nc1ccc(N2CCCC2)c(Cl)c1)c1ccco1,-14.0%,-9.1,-9.1,6.7,-23.6%,-0.3%,-21.0%
Cc1ccc(C2C(C#N)=C3N=C(N)c4ccccc4N3C3=C2C(=O)CCC3)cc1 (centres undefined),-14.1%,15.8,-8.7,-4.2,-0.1%,1.6%,-21.4%
CCn1c(=O)c(C)nn2c3ccccc3nc12,15.1%,-12.4,-5.3,-1.5,-3.6%,-0.6%,3.1%
CNC(=O)CN(c1ccc(C(C)C)cc1)S(C)(=O)=O,12.3%,22.1,44.6,-1.3,5.0%,-0.1%,3.7%
Cc1ccc2nc(-c3ccccc3N)[nH]c2c1,2.5%,-21.4,-8.1,3.7,-1.2%[15.4 µM],·,·
C=CCN1C(=Nc2cccnc2)SCC1(O)c1ccc(C)cc1 (centres undefined),-18.9%,-17.8,·,3.4,·,·,·
Cc1cc(NC(=O)COC(=O)c2c(C)noc2C)ccc1Br,4.3%,-1.7,-8.8,-2.6,4.2%,·,-5.2%
COc1ccc2nc(SCC(=O)NC(C)(C)C)[nH]c2c1,13.8%,13.8,-10.5,-0.3,8.5%,-1.3%,5.7%
CSc1ncccc1C(=O)OCC(=O)c1cc2ccccc2o1,2.3%,4.5,-19.4,2.9,-17.4%,-3.0%,3.5%
O=C(N/N=C/c1c[nH]c2ccccc12)c1ccc(Br)cc1,-10.4%,-2.2,13.9,0.8,2.0%,·,-9.1%
COc1cccc(CN2CCN(Cc3ccc4c(c3)OCCO4)CC2CCO)c1 (centres undefined),-5.5%,8.0,-1.9,1.4,23.0%,-2.2%,11.2%
COc1ccc(OCc2nn3c(Cn4cnc5ccccc54)nnc3s2)cc1,25.1µM*,-5.3,-5.3,1.0,-1.5%,-2.5%,?
O=C(CCc1nnc(Cc2c[nH]c3ccccc23)o1)NC1CCCC1,3.0%,?,38.3,1.2,-23.5%[15.4 µM],·,-0.2%
Cn1c(=O)cc(SCC(=O)NCCN2CCN(c3ccccc3F)CC2)c2cc(Cl)ccc21,4.0%,·,1.6,3.6,?,-0.2%,-14.8%
C[C@H](NC(=O)c1nc[nH]c1C(=O)N[C@H](C)c1ccccc1)C(=O)OCc1ccccc1,-5.2%,-47.1,-11.3,-0.8,·,0.2%,-3.4%
CC(=O)Nc1ccc(N=Cc2c(O)c(C(=O)Nc3ccccc3)cc3ccccc23)cc1,-29.7%,?,13.5,?,12.8%,-0.1%,?
Cc1c(CC(=O)NCCCC(=O)O)c(=O)oc2cc3c(cc12)CCC(C)(C)O3,6.1%,2.4,-16.2,-2.0,4.7%,·,9.3%
O=C(CCN1C(=O)COc2ccccc21)NCCCN1CCCC1,0.0%,4.4,-14.8,·,29.7%,-2.6%,9.1%
O=C(CC(=O)Nc1cc(Cl)ccc1Cl)Nc1cc(Cl)ccc1Cl,7.9%,?,-4.1,-1.8,-25.7%,4.2%,-0.4%
O=C(Nc1ccc(-c2nnco2)cc1)c1ccccc1,9.6%,-3.6,8.9,3.1,0.0%,-0.6%,0.1%
COc1ccc2c(CC(=O)OCc3nc4ccsc4c(=O)[nH]3)coc2c1,·,·,0.3,·,10.6%,-5.2%,2.8%
OCCc1c[nH]c2cc(F)ccc12,16.4%,9.9,-3.9,0.8,·,-15.5%,13.7%
O=C(NCCCn1ccnc1)c1cc2ccccc2oc1=O,-6.9%,20.1,32.7,1.4,24.6%,?,21.6%
CCOc1ccc(NC(=O)CCC(=O)NNC(=O)c2ccco2)cc1,16.7%,-2.8,12.4,-1.1,4.1%[15.4 µM],0.3%,-7.8%
CCn1c(CNc2ccc(F)cc2)nnc1SCCN1CCCCC1,9.9%,-1.0,-2.4,-0.5,-18.6%,-2.0%,9.6%
CN1C[C@@H]2[C@@H]3C(=O)N(C)C(=O)[C@@H]3[C@](C)(C1=O)N2C(=O)c1ccc(Br)cc1,·,·,-0.2,·,·,-0.9%,10.2%
O=C(CSc1nnc(-c2ccc(Cl)cc2Cl)n1C1CCCCC1)NC1CCS(=O)(=O)C1 (centres undefined),9.7%,-14.5,1.1,-12.7,?,-2.0%,-8.9%
CCc1nnc2n1N=C(c1ccc(Cl)cc1Cl)CS2,11.6%,-10.7,3.6,4.2,-2.0%[15.4 µM],·,4.1%
CCOc1ccc(-n2c(O)c(/C=N/Nc3nc(C)cc(C)n3)c3ccccc3c2=O)cc1,9.3%,-11.0,25.7,19.4,-2.0%[15.4 µM],·,7.7%
NS(=O)(=O)c1ccc(NC(=O)c2ccc(S(=O)(=O)N3CCCCC3)cc2)cc1,·,·,-2.6,·,-1.5%,-9.0%,2.6%
CCN(CC(=O)NCc1ccncc1)S(=O)(=O)c1cc(Cl)ccc1Cl,9.7%,5.6,15.4,-0.2,-37.0%[inhibitor],·,7.1%
CCn1nc(NC(=O)C(C)C)c2cc3cccc(C)c3nc21,6.6%,-14.1,31.3,7.9,-9.4%,?,-13.1%
